Rango dissoc inh: prevents RanGTP from dissociating the Rango-importin beta complex; O95149+P62826; Biochemical FRET Rango-importin beta, RanGTP-induced dissociation; Potency, µM (top dose mostly 46.1 µM), for inactives: top-dose activity change, negative = inhibition; 340,000 compounds, 0.071% hits; active means falling FRET ratio curve, often poorly fitted, with flat reads before Ran was added; inconclusive means other falling curves, or compound fluorescence or quenching; inactive means flat or rising ratio curve;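 note: potency is the fitted concentration of half-maximal effect; % of control where 0% means no effect; nearly all actives have a fitted effect of over 45% in size; -100% = wells without RanGTP and RCC1; the record marks most hits as doubtful in a second field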
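Quantitative HTS using a FRET biosensor: 0.1 uM Rango, 0.25 uM importin beta, 0.6 uM Ran, 2 mM GTP, 0.2 uM RCC1 final, PBS with DTT, Tween-20 and BSA. Post-read taken 45 min after Ran addition.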
Rango-impB inh: prevents formation of the Rango-importin beta complex | Q14974 | Rango CFP/YFP FRET sensor + importin beta, 45 min | Potency, µM (doses to about 92.2 µM), without a hit: at the top dose inhibition of complex formation | 340,000 compounds, 0.031% hits | AID 540263; active = rising FRET ratio curve, often small or poorly fitted; inconclusive = mostly compound fluorescence or quenching in the first reads; inactive = flat curves in all reads;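 note: potency is the fitted concentration of half-maximal effect; 0% = DMSO wells and 100% = buffer wells lacking importin beta; nearly all actives have a fitted effect of over 15% in size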
Target sequence (Q14974 whole entry, looked up): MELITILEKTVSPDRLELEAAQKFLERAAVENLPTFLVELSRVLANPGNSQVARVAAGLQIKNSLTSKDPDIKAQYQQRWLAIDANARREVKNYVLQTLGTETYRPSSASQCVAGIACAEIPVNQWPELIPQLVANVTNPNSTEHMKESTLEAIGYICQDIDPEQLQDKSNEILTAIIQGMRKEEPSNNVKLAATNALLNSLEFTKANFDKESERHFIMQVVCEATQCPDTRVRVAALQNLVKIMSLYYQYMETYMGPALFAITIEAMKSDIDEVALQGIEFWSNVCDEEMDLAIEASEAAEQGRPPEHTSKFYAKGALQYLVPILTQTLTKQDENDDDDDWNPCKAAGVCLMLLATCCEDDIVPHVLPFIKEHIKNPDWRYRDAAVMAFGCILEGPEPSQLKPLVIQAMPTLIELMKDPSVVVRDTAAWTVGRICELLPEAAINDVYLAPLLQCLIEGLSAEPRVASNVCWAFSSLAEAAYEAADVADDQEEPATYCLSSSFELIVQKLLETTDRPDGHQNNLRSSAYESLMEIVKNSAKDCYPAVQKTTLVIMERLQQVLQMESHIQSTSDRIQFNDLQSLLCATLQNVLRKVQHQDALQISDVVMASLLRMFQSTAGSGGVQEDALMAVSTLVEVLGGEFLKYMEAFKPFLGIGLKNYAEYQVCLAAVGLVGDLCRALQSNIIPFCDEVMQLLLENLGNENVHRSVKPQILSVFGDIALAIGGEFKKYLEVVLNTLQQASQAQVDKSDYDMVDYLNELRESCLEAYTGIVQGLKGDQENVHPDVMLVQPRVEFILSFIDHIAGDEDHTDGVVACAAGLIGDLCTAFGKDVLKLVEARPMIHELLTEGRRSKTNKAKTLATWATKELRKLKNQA
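Inhibition scored from the CFP 486 nm/YFP 530 nm FRET ratio 45 min after adding 0.125 microM importin beta to 50 nM Rango biosensor preincubated 5 min with compound (room temperature, PBS with DTT, Tween-20, BSA). No-importin wells as positive control.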
miR-21 reporter: raises the signal of a miR-21 reporter | HeLa miR-21 FLuc reporter, luciferase, 48 h | Potency, µM (series often up to 38.3 µM), without a hit: at the highest dose reporter change, positive = more light | 340,000 tested, under 10 active | AID 2288; active = well fitted rising curve with a large enough effect; inconclusive = small, poorly fitted or top-dose-only effect; inactive = no such curve, though single readings can be large or run the other way;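 note: % of control where 0% means no effect; miR-21 action dims this reporter so a rising signal means less miR-21 action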
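HeLa miR-21-FLuc reporter line, endogenous miR-21; 2000 cells/well in DMEM/10% FBS; compound titration up to ~40uM final, 48 h, 37 degree Celsius; luciferase detection reagent, 15 min lysis, CCD luminescence.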
GLA inh pH 4.5: alpha-galactosidase A (human) inhibition, pH 4.5. activity change, negative = inhibition, % at 105 µM. 230,000 tested, under 10 active. P06280. purified enzyme, 4-MU-alpha-Gal fluorescence, pH 4.5; inconclusive = small, poorly fitted or top-dose-only inhibition, or a rising curve; inactive = flat fitted curve, though single readings scatter; no compound was filed as active;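 note: 0% = full activity with enzyme and -100% = basal without enzyme; dose as in the result columns while the protocol names 77 µM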
Starred values were filed as active, the others as inactive; ? = inconclusive; nt = not tested or not shown; & = joins results of further samples. These rows are one share of the data; rates above refer to the full screens.

SMILES | Rango dissoc inh | Rango-impB inh | miR-21 reporter | GLA inh pH 4.5
CCCCC(=O)Nc1ccc(C(=O)NNC(=S)NC(=O)c2ccco2)cc1 | 0% | 0.2% | 1% | -2
O=C(O)C1CN(c2nc(Cl)ccc2[N+](=O)[O-])C1 | 6% | -1.1% | 0% | -2
O=Cc1cc2cc3c(cc2nc1Cl)OCCO3 | -18% | -3.7% | -11% | 0
COc1ccc(-n2nc(C(=O)NCC(=O)Nc3cc(OC)ccc3OC)c3ccccc3c2=O)cc1 | ? | ? | 8% | nt
Cc1cc(C)n(-c2cc(C)c(C)cc2Br)n1 | -2% | -0.6% | 4% | -6
CCOC(=O)Cc1nnc(NC(=O)CSc2ccccc2)s1 | -8% | -3.3% | 0% | 5
O=C(NCCc1ccccn1)C1CCCN(S(=O)(=O)Cc2ccccc2)C1 (stereo unspecified) | -2% | 1.3% | -1% | -1
COc1ccccc1CC1CC(=O)N(c2ccccc2)C1=O (stereo unspecified) | -10% | -2.6% | 0% | nt
CC(c1ccc(F)cc1)n1c(Cn2ncc3ccccc3c2=O)n[nH]c1=S (stereo unspecified) | 17% | -2.9% | -11% | -4
Cc1ccc(C)c(-n2cc(CNCCCn3cccn3)c(-c3ccccc3)n2)c1 | 3% | 4.3% | 3% | -3
C=CCn1c(NCc2ccco2)nc2ccccc21 | -5% | -0.1% | -13% | nt
Cc1cccc(N2CCN(C(=S)c3ccc4c(c3)OCO4)CC2)c1 | 1% | 0.6% | nt | nt
Cc1sc(NC(=O)c2ccccc2F)c(CN2CCCCC2)c1C | ? | ? | -50% | -8
c1ccc(-c2nnc(CN3CCN(C(c4ccccc4)c4ccccc4)CC3)o2)cc1 | -6% | 0.1% | 9% | 9
COc1ccc(OC)c(-c2csc(NC(=O)Cc3ccc(OC)c(OC)c3)n2)c1 | -1% | -2.6% | 11% | nt
CCOc1ccccc1NC(=O)CNC(=O)N1CC(=O)Nc2ccccc21 | 0% | 2.4% | -3% | nt
Cc1c(C)c2ccc(OC(C)C(=O)N3CC[C@@]4(O)CCCC[C@H]4C3)cc2oc1=O (stereo partly specified) | 4% | -1.8% | -9% | nt
Cc1ccsc1C1Nc2ccccc2-c2nc3ccccc3n21 (stereo unspecified) | -2% | 0.0% | -22% | -2
Cc1ccsc1C(=O)OCC(=O)N1CCN(c2ccccc2)CC1 | 24% | 6.1% | nt | nt
CCOc1ccc(C(c2nnnn2C(C)(C)C)N2CCN(C(=O)c3ccco3)CC2)cc1 (stereo unspecified) | 55% | 1.1% | 0% | nt
Cc1nn(C)c(C)c1/C=C/C(=O)c1cccs1 | 2% | -1.9% | nt | nt
O=C(CSc1nnc(CNC(=O)c2cccs2)o1)Nc1ccc(Br)cc1 | -16% | 0.1% | 7% | nt
CCc1nccn1CCC(=O)N1CCCC(N2CCN(c3ccccc3C)CC2)C1 (stereo unspecified) | -7% | 0.5% | 0% | nt
Cc1ccc(C(=O)N2CCN(C)CC2)cc1[N+](=O)[O-] | 5% | -0.1% | 0% | nt
O=C(NCCc1c[nH]c2ccccc12)OCCCCOC(=O)NCCc1c[nH]c2ccccc12 | -4% | -5.9% | nt | nt
c1ccc2c(c1)[nH]c1nc(SCCN3CCOCC3)nnc12 | -3% | -4.0% | -15% | -2
N/C(=N\OC(=O)Nc1cccc(C(F)(F)F)c1)c1ccno1 | 4% | -0.9% | 1% | 7
CN(C)C(CNC(=O)CN1C(=O)NC2(CCCC2)C1=O)c1ccccc1 (stereo unspecified) | 3% | -5.9% | nt | nt
CC1CCC(NC(=O)c2cc3ccccc3cc2O)CC1 (stereo unspecified) | ? | ? | nt | nt
O=C(O)/C=C\c1cccc(-n2cnnn2)c1 | 8% | 0.4% | -5% | 1

Full records, looked up by structure. Values in the order: Rango dissoc inh | Rango-impB inh | miR-21 reporter | GLA inh pH 4.5
CCOc1ccc(C(c2nnnn2C(C)(C)C)N2CCN(C(=O)c3ccco3)CC2)cc1 (stereo unspecified) as listed: 55% | 1.1% | 0% | nt
O=C(CSc1nnc(CNC(=O)c2cccs2)o1)Nc1ccc(Br)cc1 as listed: -16% | 0.1% | 7% | nt
COc1ccc(-n2nc(C(=O)NCC(=O)Nc3cc(OC)ccc3OC)c3ccccc3c2=O)cc1 as listed: ? | ? | 8% | nt
CCOc1ccccc1NC(=O)CNC(=O)N1CC(=O)Nc2ccccc21 as listed: 0% | 2.4% | -3% | nt

Following part.
SMILES | Rango dissoc inh | Rango-impB inh | miR-21 reporter | GLA inh pH 4.5
COc1ccc(OC)c(NC(=O)CNC(=O)c2cccs2)c1 | 6% | -0.6% | -4% | -3
O=C(N/N=C\c1cccs1)c1ccccc1-n1cccc1 | -5% | 2.9% | -10% | 0
O=C1C2ON(c3ccccc3)C(c3ccccc3F)C2C(=O)N1c1ccccc1 (stereo unspecified) | 3% | 0.2% | -1% | 2
COC(=O)c1cc(OC)c(OC)cc1NC(=S)Nc1cccc(Cl)c1 | -17% | -0.1% | 2% | -20
CC(=O)Nc1ccc(-c2nc3c(C)cccc3[nH]2)cc1 | -9% | 0.6% | -54% | -13
O=c1cc(N2CCN(c3ccccc3)CC2)[nH]c(=O)n1Cc1ccc(F)cc1 | 12% | ? | 4% | 4
Cn1c(=O)c(=O)n(C)c2cc([N+](=O)[O-])c([N+](=O)[O-])cc21 | 1% | -3.6% | 25% | 1
CCOC(=O)Cc1csc(NC(=O)CSc2nnc(-c3ccc(OC)cc3)n2C)n1 | 2% | -3.6% | -2% | -2
Cc1nnc(SC(C)C(=O)Nc2ccc(Cl)cn2)n1Cc1ccccc1 (stereo unspecified) | 21% | -0.2% | -1% | -2
COc1ccccc1-c1noc(-c2ccccc2C(=O)NCc2ccco2)n1 | 0% | 5.4% | 6% | 2
CCOc1ccc(S(=O)(=O)NCCC(=O)OCC(=O)NC(=O)c2cccn2C)cc1 | -19% | -1.9% | nt | nt
COc1cccc(C(C(=O)NC2CCCCC2)N(C(=O)c2ccccn2)c2cccnc2)c1 (stereo unspecified) | 0% | 0.9% | 0% | 1
C[C@]12c3[nH]c4cc(-c5ccco5)ccc4c3CCN1C(=O)[C@@H](CC(=O)NCCC1=CCCCC1)C[C@@H]2C(=O)N1CCOCC1 | -11% | 0.4% | nt | nt
CCOc1ccc2c(c1)c1nnc(SCC(=O)N3CCCCC3C)nc1n2C (stereo unspecified) | -10% | 1.1% | -2% | -3
Cn1nnnc1SCCNCc1cc(Cl)ccc1OCc1ccccc1 | 3% | -0.3% | 10% | -3
COc1ccccc1C(=O)N1CCC(C(=O)c2ccc(F)cc2)CC1 | -1% | -0.6% | -2% | -1
O=C(Nc1ccc(Cl)cc1)C1CCCC1 | 4% | 3.1% | -2% | nt
CCCC1=Nc2cc(C(=O)N3CCN(c4ccccn4)CC3)ccc2Sc2ccc(C)cc21 | -3% | -5.1% | -9% | nt
Cc1cc(C)c2c(N)c(-c3nc4ccccc4[nH]3)sc2n1 | ? | ? | -43% | 6
CN1/C(=C\C(=O)COC(=O)Cn2nnc(-c3ccccc3)n2)C(C)(C)c2ccccc21 | -14% | 0.8% | 4% | -5
CC(C)c1ccc(Nc2nc(CC(=O)O)cs2)cc1 | -2% | 0.3% | -48% | -8
Cc1cccc(N2O[C@H]3C=CC2CCCC3)n1 | 9% | -0.3% | nt | nt
O=C(NCC1CCCO1)C12CN(Cc3ccccc3)CC1C(c1cccc([N+](=O)[O-])c1)=NO2 (stereo unspecified) | -4% | -0.8% | 1% | 1
NC1=NC(=Nc2ccc(Cl)cc2)c2ccccc21 | 7% | -1.6% | -14% | -2
N#Cc1nc(-c2ccc(F)cc2)oc1N1CCCC1 | 0% | -2.6% | -16% | -13
O=C(COC(=O)COc1ccccc1Cl)Nc1ccccc1OC(F)F | 6% | 0.4% | -1% | -9
COC(=O)c1ccccc1NC(=O)Cn1nnc(-c2ccc(OC)cc2)n1 | -1% | -2.5% | 15%&0% | -12
CCCC(=O)NC(=S)Nc1cccc(NC(=O)c2ccc(Cl)cc2Cl)c1 | -15% | -1.4% | 7% | -8
O=S(=O)(c1ccc(-c2nc3ccccc3s2)cc1)N1CCCC1 | -8% | -2.4% | -14% | 4
Cc1ccc(C(=O)NCCNc2ncc(C(F)(F)F)cc2Cl)cc1[N+](=O)[O-] | -9% | -2.6% | 2% | nt
CCN(CC)CC(=O)c1c(N)n(Cc2ccccc2)c(=O)n(C)c1=O | -4% | 2.4% | 5% | -9
CC1=C(C(=O)OCC2CCCO2)C(c2ccc(Cl)c(Cl)c2)NC(=O)N1 (stereo unspecified) | -8% | 4.4% | -2% | -6
Cc1ccc(F)cc1CNC(=O)C1CCC(=O)N(CCCN2CCCC2=O)C1 (stereo unspecified) | -19% | -3.3% | -22% | nt
CC(=O)c1ccc(NC(=O)/C(Cl)=C/c2ccccc2)cc1 | 12% | -0.2% | -63% | -4
COC(=O)n1c(=O)oc2ccccc21 | 13% | 3.1% | 1% | 0
C=C(Br)Cn1c(CC(C)C)nc2ccccc21 | -12% | -4.3% | -1% | -2
c1ccc(CCc2nn3c(Cn4nnc5ccccc54)nnc3s2)cc1 | 1% | ? | -8% | -5
CCCCOC(=O)c1cccc(NC(=O)CCC(=O)O)c1 | 13% | 5.1% | 2% | 4
Cc1nnsc1C(=O)N1CCC(CO)(Cc2ccccc2Cl)CC1 | 10% | -0.1% | 4% | -13
CS(=O)(=O)N(CC(=O)O)c1cc(Cl)cc(Cl)c1 | -13% | 3.5% | -2% | 3
CCc1ccc(Nc2nnc(SCC(=O)c3c(N)n(C4CC4)c(=O)[nH]c3=O)s2)cc1 | 8% | 0.2% | nt | nt
O=C(COc1ccccc1[N+](=O)[O-])Nc1cc(C(=O)O)cc(C(=O)O)c1 | 8% | 9.3% | 1% | 3
CCn1c2ccc(OC)cc2c2nc3ccccc3nc21 | 11% | ? | -23% | -1
O=C(NN1C(=O)/C(=C/c2cccc(O)c2)SC1=S)c1ccccc1O | 9% | 2.2% | -2% | nt
CCn1c(/C=C2/C(=O)N(C)c3ccccc32)nc2ccccc2c1=O | -5% | -0.1% | -16% | 6
FC(F)(F)c1ccc(N2CCN(c3cc(-c4ccccc4)nc4ncnn34)CC2)nc1 | -1% | -3.9% | -5% | -1
COc1ccc(-c2cc3ncccc3cn2)cc1 | -9% | 1.0% | nt | nt
COc1ccc(NS(=O)(=O)c2ccc(NC(=O)c3ccc(N(C)S(C)(=O)=O)cc3)cc2)c(OC)c1 | 1% | -1.9% | 7% | 0
COc1ccc(CCNC(=O)C(=O)NCC2OCCN2S(=O)(=O)c2cccs2)cc1OC (stereo unspecified) | -7% | 1.3% | nt | nt
Cc1cc(C)cc(N2C(=O)CC(n3nc(C)cc3C)C2=O)c1 (stereo unspecified) | -10% | 2.5% | 0% | -2

(cont.)
SMILES | Rango dissoc inh | Rango-impB inh | miR-21 reporter | GLA inh pH 4.5
CCOc1ccccc1OCC(=O)OC(C)C(=O)Nc1ncc(Cl)cc1Cl (stereo unspecified) | 1% | -0.5% | nt | nt
CCOc1ccc(NC(=S)NC23CN4CN(CN(C4)C2)C3)cc1 | -1% | -0.3% | -3% | 4
CCOC(=O)c1oc2ccccc2c1CN1CCN(c2ccccc2)CC1 | 8% | 0.5% | -3% | -6
CCSc1sc(CC)cc1C=O | -10% | 0.1% | 0% | 1
Cc1cc(C)c2c(n1)sc1c(N3CCCCC3)ncnc12 | 7% | 2.3% | -27% | -1
Nc1c(N(CCCO)C(=O)CCCN2C(=O)c3cccc4cccc(c34)C2=O)c(=O)[nH]c(=O)n1Cc1ccccc1 | 20% | -2.6% | nt | nt
O=C(NCc1cccnc1)C(=O)C1C(=O)Nc2ccccc21 (stereo unspecified) | 0% | -3.0% | -2% | -1
O=S(=O)(c1cccc(C(F)(F)F)c1)N1CCN(C(=S)NCc2ccco2)CC1 | -1% | 1.4% | -7% | -9
CC(Nc1nc2ccccc2n2cnnc12)c1ccccc1 (stereo unspecified) | 17% | -1.9% | -50% | -25
O=C(CN1C(=O)C2C3C=CC(C3)C2C1=O)NCCc1ccccc1Cl (stereo unspecified) | -8% | -2.8% | -13% | -2
CCOC(=O)c1cnc(SCc2ccccc2)nc1N | 3% | 2.8% | -48% | -8

From PubChem BioAssay
